Assay outcomes (PubChem)
HPGD inh – inhibitors of human 15-hydroxyprostaglandin dehydrogenase (HPGD); P15428; purified HPGD, NADH fluorescence kinetic, PGE2 substrate; Potency, µM, for inactives: at the top dose activity change, negative = inhibition, usual class: inhibitors; 150,000 tested, 4.3% active; AID 894; active = well fitted inhibition curve with a large enough effect (not every such curve was filed as active); inconclusive = small, poorly fitted or top-dose-only effect, or another doubt; inactive = no such curve, though single readings can be large or run the other way;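 further: top concentration of the series not given in the record; plate controls included wells without enzyme; inactives centre near -10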
Target sequence (P15428 whole entry, looked up): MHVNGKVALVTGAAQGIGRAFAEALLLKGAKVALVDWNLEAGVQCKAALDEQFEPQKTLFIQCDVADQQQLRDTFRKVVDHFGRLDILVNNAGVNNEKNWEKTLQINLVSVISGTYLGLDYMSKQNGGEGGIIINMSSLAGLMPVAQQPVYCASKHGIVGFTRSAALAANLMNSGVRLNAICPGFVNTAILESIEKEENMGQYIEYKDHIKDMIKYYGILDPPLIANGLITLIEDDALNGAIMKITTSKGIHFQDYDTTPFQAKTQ
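20 nM HPGD preincubated 15 min at room temperature with compound in 50 mM Tris-HCl pH 8, 0.01% Tween 20. Started with 1 mM NAD+ and 30 uM prostaglandin E2; NADH fluorescence (360/450 nm) read 5 times over 30-s intervals, last minus first.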
Numbers without * were called inactive; ? = inconclusive. On the % scale 0 is the no-effect control and ±100 the full control effect; potency means the concentration at half of the fitted maximal effect. This is a subset, so the mix of outcomes need not match the whole.

SMILES | HPGD inh
O=C(NC1(C(=O)O)CCCC1)c1ccccc1 | -9.2%
Cc1ccccc1NC(=O)CSc1nc(N)c(C#N)cc1C#N | -15.7%
CCOC(=O)C1=C(N)n2c(s/c(=C\c3cccnc3)c2=O)=C(C(=O)OCC)C1c1cccnc1 (stereo not drawn) | -2.1%
CCCCN(Cc1ccccc1)C(=O)C1CCN(S(=O)(=O)c2c(C)noc2C)CC1 | -14.0%
CC(=O)Nc1ccc(OCC(O)CN2C(C)(C)CC(O)CC2(C)C)cc1 (stereo not drawn) | 0.5%
CCOc1ccc(N2C(=O)C3Sc4[nH]c(=O)sc4C(/C=C/c4ccccc4)C3C2=O)cc1 (stereo not drawn) | -20.4%
Cc1ccc(C(=O)NC(=S)Nc2cccc(-c3nc4ccccc4s3)c2)cc1 | -8.1%
COCCN1C=C2C(=O)C(C)(OC(=O)c3cccs3)C(=O)C=C2C=C1CCCC(=O)OC (stereo not drawn) | -8.6%
CC(C)CCNC(=O)C(c1ccco1)N(Cc1ccc(F)cc1)C(=O)c1snc(C(N)=O)c1N (stereo not drawn) | ?
CC(C)n1c(CCC(=O)O)ccc1-c1ccccc1 | -21.2%
CCCCOc1cccc(-c2nnc(N)s2)c1 | -8.6%
CCC(Sc1nc(C)cc(C)n1)C(=O)Nc1ccc(Cl)cn1 (stereo not drawn) | -13.8%
Cc1ccccc1OCc1nc(-c2ccc(-n3cccc3)cc2)no1 | -9.0%
CCOCCCNCc1cccc(OC)c1 | -3.6%
COc1cccc(C(=O)CSc2nc3cccnc3n2C)c1 | -19.9%
CC(C)C(C(=O)Nc1ccccc1)N1C(=O)c2ccccc2C1=O (stereo not drawn) | -17.1%
Cn1c(CNc2nc3ccccc3n2C)nc2ccccc21 | -7.8%
Cc1ccc(NC(=O)CSc2nc(N)c3c4c(sc3n2)CSC(C)(C)C4)cc1 | -29.1%
O=C(Cc1ccccc1)Nc1cccc(-c2nnc(-c3ccco3)o2)c1 | ?
O=C(Cn1cnc2c(cnn2-c2ccc(F)cc2)c1=O)NCC1CCCO1 (stereo not drawn) | -6.9%
Cc1ccc(Nc2nc(N)nc(CN3CCCCCC3)n2)cc1 | -26.4%
Cc1nc(NCCN)c(C#N)c2c1COC(C)(C)C2 | -19.4%
COc1cc(CNCc2ccncc2)cc(Br)c1OCc1ccccc1F | -1.2%
Cc1cc2cc(CNC(=S)Nc3ccc(OC(F)(F)F)cc3)ccc2n1C | -4.3%
Oc1ccccc1-c1cc(-c2cccc(F)c2)n[nH]1 | -29.4%
New compounds follow
SMILES | HPGD inh
COc1ccc(CNC(=O)COC(=O)c2cc(-c3ccco3)nc3ccccc23)cc1 | ?
COc1ccc(-c2c(C)oc3cc(O)cc(O)c3c2=O)cc1OC | -13.7%
CCCN(CCC)C1Sc2ccc(C(=O)OC)cc2NC1=O (stereo not drawn) | -6.2%
COc1ccc2[nH]cc(C(=O)CN3CCCCC3C)c2c1 (stereo not drawn) | -5.5%
Cc1ccc(OCCCC(=O)Nc2nncs2)cc1 | -6.7%
CCN(Cc1ccccc1)c1ccc(/C=N/NS(=O)(=O)c2cccc([N+](=O)[O-])c2)cc1 | -19.4%
CCOc1ccc(NC(=O)N2CCN(c3nc4ccccc4s3)CC2)cc1 | -10.1%
COc1ccc(S(=O)(=O)Cc2ccc(C(=O)N3CCN(c4cccc(C)c4C)CC3)o2)cc1 | -10.3%
CCCSC(=O)N(CC)CC(=O)Nc1c(CC)cccc1CC | -6.9%
CC1(NC(=O)c2cc(S(=O)(=O)N3CCCCC3)ccc2Cl)CCS(=O)(=O)C1 (stereo not drawn) | -12.6%
CC1CCCN(CC(=O)Nc2ccc(S(=O)(=O)N3CCCCC3)cc2)C1 (stereo not drawn) | -0.7%
COc1ccccc1OCCCCCNCCO | -4.7%
CC(CC(=O)NC1CCCC1)c1ccccc1 (stereo not drawn) | 2.51µM*
CCCCNC(=O)n1c(SC)nc2ccccc21 | -22.9%
O=C(CSc1nc2ccccc2s1)NNC(=O)Nc1ccc(Cl)c(Cl)c1 | -5.6%
c1ccc2cc3c(NCCN4CCOCC4)ccnc3cc2c1 | ?
COC(=O)c1ccc(CNC(=O)COC(=O)CC23CC4CC(CC(Br)(C4)C2)C3)cc1 | -25.5%
CCOC(=O)c1ccc(N2C(=O)CC(N(C)Cc3ccccc3)C2=O)cc1 (stereo not drawn) | -4.3%
CCOC(=O)c1cc(C(=O)OCC)c2cc(Br)ccc2n1 | -24.4%
Cc1ccc(C(=O)N/N=C\c2c(C)nn(-c3ccccc3)c2Cl)cn1 | -7.3%
O=C(CN1C(=O)c2ccccc2C1=O)Nc1cccc(S(=O)(=O)Nc2ccccc2Cl)c1 | -6.1%
COc1cccc(-c2cc(C(F)(F)F)nc(N3CCOCC3)n2)c1 | -16.2%
O=C(OCc1nc2ccccc2s1)c1cc2ccccc2oc1=O | -23.5%
COC(=O)C1CCN(C(=O)COC(=O)Cn2cnnn2)CC1 | -17.0%
c1ccc(CSc2ncnc3c2cnn3-c2ccccc2)cc1 | 25.1µM*

6 compounds drawn at random from those above, as already listed:
SMILES | HPGD inh
CCOc1ccc(NC(=O)N2CCN(c3nc4ccccc4s3)CC2)cc1 | -10.1%
CCCN(CCC)C1Sc2ccc(C(=O)OC)cc2NC1=O (stereo not drawn) | -6.2%
COC(=O)c1ccc(CNC(=O)COC(=O)CC23CC4CC(CC(Br)(C4)C2)C3)cc1 | -25.5%
CC1CCCN(CC(=O)Nc2ccc(S(=O)(=O)N3CCCCC3)cc2)C1 (stereo not drawn) | -0.7%
COC(=O)C1CCN(C(=O)COC(=O)Cn2cnnn2)CC1 | -17.0%
COc1ccc(S(=O)(=O)Cc2ccc(C(=O)N3CCN(c4cccc(C)c4C)CC3)o2)cc1 | -10.3%

Later entries:
SMILES | HPGD inh
COc1cccc(-n2c(-c3ccco3)nc3nc4ccccc4nc32)c1 | -23.3%
CCc1ccc(NC2=NC(C(=O)NC3CCCCC3)CC(=O)N2)cc1 (stereo not drawn) | -5.9%
CC(C)(C)OC(=O)NCCc1nnc(S(=O)(=O)Cc2ccc(Cl)cc2Cl)o1 | 2.51µM*
COc1cc2c(c(OC)c1)C(c1ccncc1)CC(=O)N2 (stereo not drawn) | -7.1%
N#C/C(=C/c1ccc(-c2ccccc2)o1)c1nc(-c2cccs2)cs1 | -29.8%
CC(=O)c1c(N2CCCC2)nc(=S)n(-c2ccccc2)c1C | -8.2%
COCCn1c(COc2ccccc2)nnc1SCC(N)=O | 1.6%
C[C@@]12C[C@H](O)C3[C@H](CCC4=CC(=O)CC[C@]43C)[C@H]1CC[C@@H]2c1csc(-c2ccccc2)n1 (stereo partly drawn) | -15.2%
CC1CC1C(=O)Nc1ccc(-c2ccccc2)cc1 (stereo not drawn) | ?
COc1cccc(C(=O)Nc2c(F)c(F)c(F)c(F)c2F)c1 | -9.7%
Cc1cc(C)n(C(=O)COc2ccc([N+](=O)[O-])cc2)n1 | -7.1%
CCOC(=O)/C(=C/c1ccccc1)NC(=O)c1ccco1 | -8.9%
O=C(O)CSc1cccc2cccnc12 | ?
CCOc1cc(C(=O)Nc2c3c(nn2C(C)(C)C)CS(=O)C3)cc(OCC)c1OCC (stereo not drawn) | 2.6%
Cc1ccc(-n2c3nc(=O)[nH]c(=O)c-3cc3cc([N+](=O)[O-])ccc32)cc1 | ?
CSC1=C(C#N)C(CC(C)C)C(C(C)=O)=C(C)N1 (stereo not drawn) | -3.6%
Cn1c(N)c(C(=O)CSc2nc3ccccc3n2-c2ccccc2)c(=O)n(C)c1=O | -9.1%
CC(C)(C)NC(=O)NC(=O)COC(=O)c1nc(-c2ccccc2)n(-c2cccc(C(F)(F)F)c2)n1 | -18.2%
CCCn1c(SC(C)C(=O)O)nc2ccccc21 (stereo not drawn) | -11.9%
CC(C)c1nnc(NC(=O)CCC(=O)NCC2CCCO2)s1 (stereo not drawn) | -8.1%
COc1ccc(Cc2c(N)nc(N)nc2N)cc1 | -1.8%
CC(c1nnc(SCn2nnc3ccccc3c2=O)n1-c1ccc(Cl)cc1)N(C)C (stereo not drawn) | 0.8%
COC(=O)N[C@H](CC(C)=O)c1cccc(C(F)(F)F)c1 | -3.3%
O=C(c1ccccc1)c1cnc(-c2ccc(Cl)cc2)s1 | -9.6%
CN(c1ccc(C(=O)NCCc2ccccc2)cc1)S(C)(=O)=O | 2.4%
Further results follow:
SMILES | HPGD inh
O=C(NC1CCCCC1)NC1CC2CCC(C1)N2Cc1nnnn1Cc1ccc2c(c1)OCO2 (stereo not drawn) | -14.9%
O=C(Nc1ccon1)c1cccc(Cl)c1 | -28.3%
O=C(Cc1nc(-c2ccc([N+](=O)[O-])cc2)cs1)Nc1ccccc1 | -19.3%
Cc1cc(C)cc(N(C(C)C(=O)Nc2c(C)n(C)n(-c3ccccc3)c2=O)S(C)(=O)=O)c1 (stereo not drawn) | -7.9%
CCOC(=O)c1cc(-c2ccc(OC)cc2)nc2c1c(C)nn2CCC#N | ?
O=C(NCC(F)(F)F)N1CCOCC1 | -5.8%
COc1cccc(C(=O)OC(C)CN2CCCC2)c1 (stereo not drawn) | -3.9%
Cc1ccc(C(=O)CCNc2ccc(Cl)cc2)o1 | -9.6%
O=C(Nc1ccc2c(c1)OCCO2)c1c(F)c(F)c(F)c(F)c1F | -4.6%
Cc1c(NC(=O)Cn2nc(C(=O)O)c3ccccc3c2=O)c(=O)n(-c2ccccc2)n1C | -3.4%
CS(=O)(=O)Nc1ccc(OCc2ccccc2)cc1 | ?
O=C(CP(=O)(c1ccccc1)c1ccccc1)N1CCCCC1 | -11.7%
CCCS(=O)(=O)c1c(S(=O)(=O)CCC)c2cnccn2c1C(=O)c1ccc(Cl)cc1 | -14.7%
COc1ccc(C2Nc3ccccc3C(=O)N2c2ccc(F)cc2)cc1CSc1ccccn1 (stereo not drawn) | ?
CCC(C)NCCOc1ccc(Br)cc1 (stereo not drawn) | 3.5%
CN(Cc1ccccc1)C(=O)[C@H](Cc1ccc2ccccc2c1)NC(=O)[C@@H]1C[C@@H](O)CN1C(=O)c1cn(C)c2ccccc12 | -8.4%
CCSc1nc2cc(OC)c(OC)cc2c(=O)n1CCc1ccccc1 | -7.8%
Cc1ccc(C(=O)N2CC(C)OC(C)C2)c(Cl)c1 (stereo not drawn) | 15.8µM*
Cc1noc(C)c1CSc1nc2sc(C)c(C)c2c(=O)n1-c1ccccc1 | -6.0%
COc1ccc(C2c3cc(OC)c(OC)cc3Cc3c4cc(OC)c(OC)cc4cc[n+]32)cc1OC (stereo not drawn) | -9.8%
Cc1ccnc(NC(=O)COc2c(C)cc(C)cc2[N+](=O)[O-])c1 | -7.1%
O=C(O)Cc1sc(-c2ccccc2)nc1-c1ccccc1 | -17.2%
COc1ccc(-n2cnnc2SCC(=O)c2ccc(S(=O)(=O)N3CCOCC3)cc2)cc1 | -12.2%
COc1ccc(CCN2C(=O)CC(Cc3ccc(Br)cc3)C2=O)cc1OC (stereo not drawn) | -1.5%
O=C(NCc1ccccc1Cl)C1CCN(S(=O)(=O)N2CCCCC2)CC1 | -2.1%

An excerpt of these results, with values ahead of the structure:
HPGD inh,canonical_smiles
-29.4%,Oc1ccccc1-c1cc(-c2cccc(F)c2)n[nH]1
?,COc1ccc(CNC(=O)COC(=O)c2cc(-c3ccco3)nc3ccccc23)cc1
-13.7%,COc1ccc(-c2c(C)oc3cc(O)cc(O)c3c2=O)cc1OC
-6.2%,CCCN(CCC)C1Sc2ccc(C(=O)OC)cc2NC1=O (stereo not drawn)
-5.5%,COc1ccc2[nH]cc(C(=O)CN3CCCCC3C)c2c1 (stereo not drawn)
-6.7%,Cc1ccc(OCCCC(=O)Nc2nncs2)cc1

New compounds follow.
SMILES | HPGD inh
O=C1C=C(N2CCN(C3=CC(=O)CCC3)CC2)CCC1 | -3.1%
CC(C)c1ccc(OCC(=O)NCCO)cc1 | -3.4%
COc1ccccc1N1CCN(Cc2nc3ccccc3c(=O)n2CC(C)=O)CC1 | -4.3%
Cc1cc(C)c(NC(=O)C2CCCN2CCOC(=O)c2ccccc2)c(C)c1 (stereo not drawn) | -9.8%
COc1ccccc1OC1=NS(=O)(=O)c2ccccc21 | -26.2%
CCN(CC(=O)NC1CCS(=O)(=O)C1)S(=O)(=O)c1ccc(F)cc1 (stereo not drawn) | -17.7%
O=C(NC(=S)Nc1cc(C(F)(F)F)ccc1Cl)c1ccccc1 | -11.4%
O=C(Oc1cccc(Oc2ccccc2)c1)N1CCOCC1 | -14.0%
COc1ccc(CNC(=O)Cn2cnc3c(=O)n(C)c(=O)n(C)c32)cc1 | -10.2%
Clc1ccc(-c2nc3ccccc3nc2-c2ccccc2)cc1 | -17.4%
O=C(/C=C/c1ccccc1)N/C(=C/c1ccccc1)C(=O)NCCO | -12.7%
O=C(OCc1cnc(Cl)s1)c1cccc(Cl)c1 | -22.1%
Cc1ccccc1N(C(=O)c1cccs1)c1nc2ccccc2s1 | ?
CCOC(=O)Cn1c(=O)oc2cc(S(=O)(=O)Nc3cc(OCC)ccc3OCC)ccc21 | -11.2%
COc1cccc(NC(=S)N(CCc2nc3cc(C)c(C)cc3[nH]2)Cc2cccnc2)c1 | -14.4%
CCN(CC)S(=O)(=O)c1cc(NC(=O)COC(=O)Cn2cnc3ccccc32)ccc1C | -8.0%
CCS(=O)(=O)n1nc(C(=O)N2CCOCC2)nc1N | -10.0%
CC1Sc2n(c3ccccc3[n+]2C)N=C1c1ccccc1 (stereo not drawn) | -0.8%
COc1cccc(C(=O)O/N=C(\N)c2ccc([N+](=O)[O-])cc2)c1 | -12.9%
Cc1cccc(C)c1N=C1SC(CC(=O)Nc2c(C)cccc2C)C(=O)N1CCc1ccccn1 (stereo not drawn) | -6.3%
O=c1[nH]cnc2c1nc(SCc1ccccc1)n2C1OC(CO)C(O)C1O (stereo not drawn) | -2.0%
O=C(CN1C(=O)NC2(CCCCCCC2)C1=O)NCc1cccs1 | -8.0%
C=CCc1ccc(OCCOc2cccc3ccc(C)nc23)c(OC)c1 | -12.9%
CCC/C(=N/NC(=O)c1csc(C)c1C)c1ccc(Cl)s1 | -22.2%
